2A StopGo: High Throughput Screening for Foot and Mouth Disease Virus Antivirals; AID 1159524, 2015; Potency, µM (top dose mostly 57.9 µM), without a hit: at the highest dose signal change, negative = less light; 410,000 compounds, 1.2% hits; human cells with a luciferase reporter of 2A StopGo recoding; control for the full effect not named in the record; active = well fitted falling curve with a large enough effect; inconclusive = small, poorly fitted or top-dose-only effect; inactive = no such curve, though single readings can be large or run the other way; tested in HEK293T cells; further: nearly all actives have a fitted effect of over 45% in size; luciferase light after 4 h
Active calls of the source: *; ? = inconclusive; [ ] = another dose, or the depositor's remark. On the % scale 0 is the no-effect control and ±100 the full control effect; potency means the concentration at half of the fitted maximal effect. A portion of the library (hit frequency here may not be typical).

Cc1ccc(C(=O)Nc2cccc(-c3nc(CNC(=O)[C@@H]4C[C@@H](C)NC(=S)N4)c(C)o3)c2)s1
  2A StopGo: 29%
COc1ccccc1CCC(=O)N1CCOc2c(cc(-c3cnc4ccccc4c3)cc2OC)C1
  2A StopGo: -9%
COc1cccc(CN2CCC(n3cc(C(=O)NC4CCCC4)nn3)CC2)c1O
  2A StopGo: -17%
Cc1cc(C(=O)NCc2nnc3n2CCN(Cc2ccc(F)cc2F)CC3)c(C)o1
  2A StopGo: -16%
CNC(=O)[C@H]1O[C@@H](n2cnc3c(N)ncnc32)[C@H](O)[C@@H]1O
  2A StopGo: -13%
COc1cccc(CNC(=O)c2c(OC)cc(=O)n3c2CCN(C(=O)c2ccc(C)cc2C)CC3)c1
  2A StopGo: 2%
CC1CC2CCC(O2)C(C)C(=O)OC(C)CC2CCC(O2)C(C)C(=O)OC(C)CC2CCC(O2)C(C)C(=O)OC(C)CC2CCC(O2)C(C)C(=O)O1 (configuration not stated)
  2A StopGo: ?
C=C1C([C@@H](O)C[C@H](C)C2O[C@@]3(CCCCO3)CC[C@H]2C)OC2CC[C@@]3(CC[C@@H](/C=C/[C@@H](C)C4CC(C)=C[C@]5(O4)O[C@H](C[C@@](C)(O)C(=O)O)CCC5O)O3)OC2[C@@H]1O (some centres not stated)
  2A StopGo: ?
CC1=C(/C=C/C(C)=C/C=C/C(C)=C/C(=O)O)C(C)(C)CCC1O (configuration not stated)
  2A StopGo: -22%
COc1ccc(CN2CCOc3ccc(C(O)c4cccnc4)cc3C2)cc1O (configuration not stated)
  2A StopGo: -19%
COc1ccc(CN2CCC3(CCC(CNC(=O)C4CCCO4)O3)CC2)c(C)c1C (configuration not stated)
  2A StopGo: -16%
COc1ccc(N2C(=O)[C@@H]3C[C@H]2CN3Cc2cccn2-c2nccs2)cc1Cl
  2A StopGo: 4%
CC(=O)N[C@@H](C)C(=O)NCC1Cc2cccc(-c3ccccc3C(F)(F)F)c2O1 (some centres not stated)
  2A StopGo: -7%
CC(=O)c1ccc(N2CCN(S(=O)(=O)c3ccc4c(c3)CCC(=O)N4)CC2)cc1
  2A StopGo: -21%
O=C1NC(=O)C(Cc2ccccc2F)(C2CCN(Cc3cccn3-c3cccnc3)CC2)N1 (configuration not stated)
  2A StopGo: -9%
COc1cc(CN2CCCC(n3cc(C(=O)N4CCCC4)nn3)C2)cc(OC)c1 (configuration not stated)
  2A StopGo: -9%
O=C(NCC1Cc2cccc(-c3ncccn3)c2O1)c1cccc(-c2ccccc2F)c1 (configuration not stated)
  2A StopGo: 18%
O=C(NCCc1nnc2n1CCN(Cc1ccsc1)CC2)c1ccc(F)cc1
  2A StopGo: -8%
O=C(NCC1(N2CCOCC2)CCCCCC1)c1cnn(-c2nccc(-c3ccco3)n2)c1C1CC1
  2A StopGo: 0%
Cc1cccnc1-c1cccc2c1OC(CNC(=O)/C=C/c1cccs1)C2 (configuration not stated)
  2A StopGo: -16%
Cc1nc(NCc2cnn(C)c2C)sc1-c1ccn(CC2COc3ccccc3O2)n1 (configuration not stated)
  2A StopGo: -29%
O=C1CC(C(=O)N2CCCC(c3nc(-c4ccncc4)ncc3-c3ccccc3)C2)C2(CCCCC2)O1 (configuration not stated)
  2A StopGo: -4%
COc1ccc(-n2c(CNC(=O)c3ccccc3C(F)(F)F)nnc2SC)cc1
  2A StopGo: -9%
CC(CN)CC(=O)O (configuration not stated)
  2A StopGo: -9%
CCCNC(=O)[C@H]1O[C@@H]1C(=O)N[C@H](C(=O)N1CCC[C@H]1C(=O)OC)[C@@H](C)CC
  2A StopGo: -15%

C=C1CC[C@@H]2[C@](C)(CO)[C@H](O)CC[C@@]2(C)[C@@H]1C/C=C1/C(=O)OC[C@H]1O
  2A StopGo: -26%
Cc1ccc(C(=O)N(Cc2cc3ccc(F)cc3nc2N2CCC(O)CC2)CC2CCCO2)cc1 (configuration not stated)
  2A StopGo: -6%
CC(C)c1c(C(=O)NCC2(N3CCOCC3)CCCC2)cnn1-c1nccc(-c2cccs2)n1
  2A StopGo: 8%
CN1CCCCCC1C(=O)NCCN1Cc2ccccc2OC(c2ccsc2)C1 (configuration not stated)
  2A StopGo: 0%
CC(C)CN1CCN(C(=O)COC(=O)c2ccc(S(C)(=O)=O)c([N+](=O)[O-])c2)CC1
  2A StopGo: ?
CN(CCO)C(=O)c1cn(C2CCN(Cc3c(F)cccc3Cl)CC2)nn1
  2A StopGo: -11%
OCC(O)COc1cccc2ccccc12 (configuration not stated)
  2A StopGo: -10%
CCC1C(=O)NCCN1Cc1ccc2c(c1)CN(Cc1ccc(OC)cc1OC)CCO2 (configuration not stated)
  2A StopGo: -9%
O=C(C1CCCCC1)N1CCOc2ccc(CN3CCN(Cc4ccccn4)CC3)cc2C1
  2A StopGo: 23%
NC1=NC2C(N=C(Br)N2[C@@H]2O[C@H]3COP(=O)(O)O[C@@H]3[C@@H]2O)C(=O)N1 (some centres not stated)
  2A StopGo: -14%
Cc1c(C(=O)NCCN2CCOCC2)cnn1-c1nccc(-c2cc3ccccc3o2)n1
  2A StopGo: -21%
CCCS(=O)(=O)NCc1c(C)ncc2c1CCN(C(=O)c1cccc(Cl)c1F)C2
  2A StopGo: ?
COc1ccccc1CCc1nc2ccccc2n1C1CCN(C(=O)c2cn3ccsc3n2)CC1
  2A StopGo: 8%
COC(=O)c1c(OCC2CCCN(C)C2)cc(=O)n2c1CCN(Cc1ccc(OC)c(O)c1)CC2 (configuration not stated)
  2A StopGo: -6%
OC1(c2cccnc2)CCN(Cc2ccc3c(c2)CN(Cc2cc4ccccc4s2)CCO3)CC1
  2A StopGo: ?
Cc1cc(=O)c(C(=O)N(C)CCc2ccccn2)c2n1-c1ccccc1SC(c1ccsc1)C2 (configuration not stated)
  2A StopGo: -7%
Cc1cnc(-n2ncc(C(=O)NCc3ccncc3)c2-c2cccs2)nc1-c1ccc(F)cc1
  2A StopGo: -4%
COc1cccc(OC)c1CN1CCC2(CCC(CNC(=O)c3ccn(C)n3)O2)CC1 (configuration not stated)
  2A StopGo: -5%
NC(=O)[C@@H]1CCCN1C(=O)CCN1Cc2ccccc2OC(c2ccccc2F)C1 (some centres not stated)
  2A StopGo: -10%
Cc1c(C(=O)NCC2COCCO2)cnn1-c1ncc2c(n1)-c1ccccc1CC2 (configuration not stated)
  2A StopGo: 27%
CSCC[C@@H](N)C(=O)O
  2A StopGo: -14%
C[C@H](CCC(=O)NCC(=O)O)C1CC[C@H]2C3CC[C@@H]4C[C@H](O)CC[C@]4(C)C3C[C@H](O)[C@]12C (some centres not stated)
  2A StopGo: -20%
COc1ccc(CN2CCOc3ccc(CN4CCC(O)(c5cccnc5)CC4)cc3C2)cc1OC
  2A StopGo: -28%
Oc1ccc(-c2cnccn2)cc1CN1CCN(C2CCCCC2)CC1
  2A StopGo: -9%
CN(C)c1cccc(C(=O)NCC2Cc3cccc(-c4cncnc4)c3O2)c1 (configuration not stated)
  2A StopGo: 13%

An excerpt of these results, bar-delimited.
Structure | 2A StopGo
Cc1ccc(C(=O)N(Cc2cc3ccc(F)cc3nc2N2CCC(O)CC2)CC2CCCO2)cc1 (configuration not stated) | -6%
CC(C)CN1CCN(C(=O)COC(=O)c2ccc(S(C)(=O)=O)c([N+](=O)[O-])c2)CC1 | ?
Cc1c(C(=O)NCCN2CCOCC2)cnn1-c1nccc(-c2cc3ccccc3o2)n1 | -21%
OC1(c2cccnc2)CCN(Cc2ccc3c(c2)CN(Cc2cc4ccccc4s2)CCO3)CC1 | ?
COC(=O)c1c(OCC2CCCN(C)C2)cc(=O)n2c1CCN(Cc1ccc(OC)c(O)c1)CC2 (configuration not stated) | -6%

(continued)
O=C(CC1(c2cccc(F)c2)CC(=O)N(Cc2cccnc2)C1=O)N1CCCCCCC1 (configuration not stated)
  2A StopGo: 1%
CCn1c(-c2cccc(OC)c2)nc2cc(NC(C)=O)cc(C(=O)N3CCCC(C(C)=O)C3)c21 (configuration not stated)
  2A StopGo: -2%
COc1cc(=O)n2c(c1C(=O)NCc1ccc3c(c1)OCO3)CCN(C(=O)c1cccc(F)c1)CC2
  2A StopGo: -12%
CCN(CC)C1CCN(C(=O)c2cnn(-c3nccc(-c4ccco4)n3)c2C(C)C)C1 (configuration not stated)
  2A StopGo: -2%
COc1cccc(-c2ccc(O)c(CNC3CN4CCC3CC4)c2)n1 (configuration not stated)
  2A StopGo: -3%
CCOC(=O)N1CCC(N2CCOc3ccc(CN4CCC(O)(c5cccnc5)CC4)cc3C2)CC1
  2A StopGo: 1%
C=C1CC2COC(=O)C2(Cc2ccc3ccccc3c2)C1 (configuration not stated)
  2A StopGo: ?
CC(C)c1c(C(=O)NCC(C)(C)N2CCOCC2)cnn1-c1nccc(-c2cccs2)n1
  2A StopGo: -1%
Fc1ccc(C(OCCN2CCN(C/C=C/c3ccccc3)CC2)c2ccc(F)cc2)cc1
  2A StopGo: ?
CCCCCCCCCCCCCCCCCCc1ccc(C(=O)/C=C/C(=O)O)cc1
  2A StopGo: -6%
COC(=O)CC1C(=O)NCCN1C(=O)CN1Cc2ccccc2OC(c2ccccc2)C1 (configuration not stated)
  2A StopGo: 9%
CCO[C@H]1[C@H](NC(=O)c2cccnc2)c2ccccc2C12CCN(C(=O)c1cc(C)n(C)n1)CC2
  2A StopGo: 4%
COc1ccccc1N1CCN(CC2CN3C(=O)N(C)c4ccccc4C3=N2)CC1 (configuration not stated)
  2A StopGo: -23%
CCOC(=O)N1CCN(Cc2ccc3c(c2)CN(C(=O)c2ccc(C#CC(C)(C)O)o2)CCO3)CC1
  2A StopGo: ?
c1ccc(CN(CCN(Cc2ccccn2)Cc2ccccn2)Cc2ccccn2)nc1
  2A StopGo: -9%
CCn1c(-c2cccnc2)nc2cc(NC(=O)COC)cc(C(=O)N3CC[C@@H]4CCCC[C@H]4C3)c21
  2A StopGo: -7%
Cc1ccccc1CN1C(=O)[C@@H]2Cc3c([nH]c4ccccc34)C(C)(C)N2C1=O
  2A StopGo: ?
Cc1ncc2c(c1CNS(=O)(=O)N(C)C)CCN(C(=O)/C=C/c1cccc(F)c1)C2
  2A StopGo: 0%
COc1cccc(-n2c(SC)nnc2C2CCN(Cc3nc4ccccc4s3)CC2)c1
  2A StopGo: -13%
Cc1ncoc1C(=O)N1CCOc2ccc(CN3CCN(c4ccccn4)CC3)cc2C1
  2A StopGo: -17%
Cc1ccsc1C(=O)N(Cc1cc2cc3c(cc2nc1N1CCOCC1)CCC3)CC1CCCO1 (configuration not stated)
  2A StopGo: -1%
C[C@H](CC[C@@H]1OC1(C)C)C1CC[C@H]2[C@@H]3CC=C4C[C@@H](O)CC[C@]4(C)[C@H]3CC[C@]12C (some centres not stated)
  2A StopGo: 13%
COc1cc2nc(N3CCCC(O)C3)c(CNCc3ccccc3C(F)(F)F)cc2c(OC)c1OC (configuration not stated)
  2A StopGo: -5%
CC(=O)NCCCNC(=S)NCCCN(Cc1ccc(Cl)cc1)c1ccc(Br)cn1
  2A StopGo: -11%
COc1ccc(S(=O)(=O)NCc2nc(N3CCCC3)c3cccc(C)c3n2)cc1OC
  2A StopGo: -5%

O=C(NCc1ccncc1)c1cnn(-c2nccc(-c3cccs3)n2)c1C1CC1
  2A StopGo: -1%
CCC1(C2CCN(Cc3ccc(C)s3)CC2)NC(=O)N(CC2COc3ccccc3O2)C1=O (configuration not stated)
  2A StopGo: -20%
CC(C)c1c(C(=O)NCCN2CCOCC2)cnn1-c1nccc(-c2ccco2)n1
  2A StopGo: 1%
COc1ccc2c(c1)OC(C)CN(CC(=O)NCc1cn[nH]c1-c1ccc(F)cc1)C2 (configuration not stated)
  2A StopGo: -9%
O=C(c1cccc(Cl)c1)N1CCCC(Cn2cc(C(=O)N3CCCC3)nn2)C1 (configuration not stated)
  2A StopGo: 14%
C=C1Cc2c(Cl)cc3[nH]c4c5c3c2[C@@]2(O)[C@@H]1C[C@@H]2C(C)(C)O[C@H]5[C@@H]1CC[C@@]2(O)[C@@]35O[C@@H]3[C@@H](O)[C@@H](C(=O)O)O[C@H]5CC[C@]2(C)[C@@]41C
  2A StopGo: -6%
COc1ccc(C(C)N(C)Cc2nc(N3CCN(C(=O)c4ccco4)CC3)c3ccccc3n2)cc1 (configuration not stated)
  2A StopGo: 7%
COc1ccc(OC)c(-c2ccnc(-n3ncc(C(=O)N(C)CCO)c3C3CC3)n2)c1
  2A StopGo: 34%[activator]
COc1ccc2c(c1)-c1nc(-n3ncc(C(=O)NCC4CCCN(C)C4)c3C3CC3)ncc1CC2 (configuration not stated)
  2A StopGo: -19%
Cc1nc(CN2CCN(C(=O)CC3(c4ccccc4Cl)CC(=O)N(C)C3=O)CC2)cs1 (configuration not stated)
  2A StopGo: 3%
CCSc1nnc(C(C)NS(=O)(=O)c2cccc(Cl)c2C)n1C (configuration not stated)
  2A StopGo: 0%
COC(=O)[C@@H]1CCCN1C(=O)c1c(OC)cc(=O)n2c1CCN(Cc1ccc(C)o1)CC2
  2A StopGo: 0%
COc1ccc(/C=C/C(=O)N2CCc3c(cnc(C)c3CNC(=O)c3ccsc3)C2)cc1OC
  2A StopGo: -9%
COCC(=O)Nc1cc(C(=O)N[C@H]2CCCCNC2=O)c2c(c1)nc(-c1ccncc1)n2C
  2A StopGo: 2%
CSc1nnc(CNC(=O)/C=C/c2ccccc2Cl)n1-c1ccc(F)cc1
  2A StopGo: -2%
NC(=O)[C@@H]1CCCN1C(=O)[C@H](Cc1ccccc1)NC(=O)[C@@H]1CCCN1C(=O)[C@@H](N)Cc1ccc(O)cc1
  2A StopGo: -6%[6.7 µM]
O=C(NCCCN1CCOCC1)c1cnn(-c2ncc3c(n2)-c2ccccc2CC3)c1C1CC1
  2A StopGo: -6%
COC(=O)CNC(=O)C(=O)OC
  2A StopGo: 11%[6.7 µM]
COc1cc(=O)n2c(c1C(=O)N(C)Cc1nonc1C)CCN(C(=O)c1cc(C)ccc1C)CC2
  2A StopGo: -9%
COc1ccc(S(=O)(=O)N(CCO)c2ccccc2CN(C)C/C=C/c2ccc(Cl)cc2)cc1
  2A StopGo: -21%
CCOc1cccc(CN2CCC(n3cc(C(=O)N4CCCCC4)nn3)CC2)c1O
  2A StopGo: -6%
COc1cc(=O)n2c(c1C(=O)N(C)Cc1cscn1)CCN(Cc1ccc3c(c1)OCCO3)CC2
  2A StopGo: -12%

High-throughput results: PubChem BioAssay, National Center for Advancing Translational Sciences (NCATS)
